From PubChem BioAssay
AID504770: growth inhibitors of E. coli YBA685 in a screen for V. cholerae RctB (chromosome II replication) inhibitors. z-score (concentration not given with the values). E. coli YBA685 rctB-dependent plasmid, OD600 growth, 3 h; stronger effect = lower value. 130,000 tested, 0.27% active;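 active = z-score under -2 on both plates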;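 note: wells of about 30 µL received 100 nL stock; score is relative to mean and SD of the test wells; the first replicate is given; strong numbers were not always called active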
Ba CapD inh: CapD enzyme inhibition; purified CapD enzyme, fluorescence intensity read-out; stronger effect = lower value; some hits fall short of the stated cut; z-score (concentration not given with the values); 140,000 tested, 0.23% active;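 active = z-score under -4 in either of two replicates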;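 note: stock transfer was 100 nL into about 40 µL; score is relative to mean and spread of the plate; one replicate is shown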
* = called active by the depositor; · = not tested or not shown.

SMILES,AID504770,Ba CapD inh
N#C/C(=N\OC(=O)c1cccs1)S(=O)(=O)c1cccs1,·,-0.46
Cc1ccc(OC(=O)CSc2nc3c(c(-c4ccco4)c2C#N)CN(C)CC3)cc1,·,-0.11
Cc1c(Br)cc(C(=O)NC(C)C)c(C)c1C,0,0.05
COc1ccc(CCN2COc3cc4c(cc3C2)OCO4)cc1,-1.1,-0.01
c1ccc(OCCSc2nnc3c4ccccc4nc(-c4ccccc4)n23)cc1,0.85,3
Cc1csc2sc(-c3ccn[nH]3)c(C)c12,-0.45,-0.18
CC(C)C1OC(c2cccc(NC(=O)c3ccc(F)cc3)c2)OCC1(C)C (configuration not stated),-0.7,-0.015
CC(NC(=O)N1CCN(Cc2ccsc2)CC1)C(=O)Nc1ccc([N+](=O)[O-])cc1 (configuration not stated),·,-0.35

Remaining list, next part:
SMILES,AID504770,Ba CapD inh
CC(C)(C)c1ccc(C(=O)NNC(=O)c2cc(C(=O)NNC(=O)c3ccc(C(C)(C)C)cc3)cc(C(C)(C)C)c2)cc1,·,0.34
O=C(Cc1cccs1)Nc1ccccc1,-0.25,·
O=C(NCc1ccncc1)c1ccc(Oc2cc(Cl)cc(Cl)c2)o1,-0.25,0.63
CC1CCN(C(=O)c2cccc3c2SCCC3=O)CC1,-0.65,1.1
Cc1ccccc1C1N2CC3(C)CN1CC(C)(C2)C3=O (configuration not stated),·,0.13
COc1ccccc1/C=C/C=N/n1c(C)nnc1C,0.3,1.1
COc1ccc(Cc2nnc(-c3ccc(C)cc3)o2)cc1OC,-1.1,0.11
CC(=O)N(C(C)=O)c1ccc2nc(C)[nH]c(=O)c2c1,-0.65,-0.29

Next section.
SMILES,AID504770,Ba CapD inh
Cc1ccc(C)c(NC(=O)c2cc(C)nn2-c2ccccc2)c1,2.1,-1.3
O=C(CCCCl)O/N=C1\C(=O)N(Cc2ccc(Cl)cc2)c2ccccc21,·,-0.77
COc1cc(-c2nc(-c3ccc(NC(=O)c4ccco4)cc3)no2)cc(OC)c1OC,·,0.47
O=C1c2sc3nc4ccccc4n3c2C(=O)N1c1cc(Cl)ccc1Cl,-0.85,0.06
CCCCn1c2nc3ccccc3nc2c2c(N)ncnc21,0.2,0.32
CCc1ccc(NC(=O)C(C)OC(=O)/C=C/c2ccco2)cc1 (configuration not stated),0.55,·
CN(Cc1cccs1)C(=O)c1nc(-c2ccccc2)n(-c2ccccc2)n1,0.45,·
Cc1cc(C(=O)NC(C)C)on1,-1.3,-0.14

(listing goes on)
SMILES,AID504770,Ba CapD inh
Clc1ccc(-c2nnsc2Sc2ccccc2Cl)c(Cl)c1,·,-0.32
CC(C)CN1CCOC(CNC(=O)NC2CCCCC2)C1 (configuration not stated),-0.15,·
COc1ccc(/C=C2/SC(N3CCN(C(=O)CN4C(=O)S/C(=C\c5ccccc5F)C4=O)CC3)=NC2=O)cc1,·,0.31
N#Cc1cc(Sc2ccc(Cl)cc2)c(-n2nnc3ccccc32)cc1C#N,-0.2,-0.7
CCCn1c(=NC(=O)C(C)(C)C)sc2c(OC)ccc(OC)c21,-0.6,·
CCN(CC)c1ccc(N=c2ssc3c2-c2cc(C)ccc2NC3(C)C)cc1,·,0.29
CCCCc1ccc(NS(=O)(=O)c2ccc(CCC)cc2)cc1,·,0.03
O=C(CCCn1sc2ccccc2c1=O)N1CCCC1,0.35,0.29

(list continues)
SMILES,AID504770,Ba CapD inh
CC(N=Cc1c(O)[nH]c2ccccc12)c1ccccc1 (configuration not stated),-0.5,-2
CC(=O)N1CCc2cc(NC(=O)Nc3cccc(Cl)c3)ccc21,0.4,·
O=C1C2C3c4ccccc4C(c4ccccc43)C2C(=O)N1Cc1ccccn1 (configuration not stated),0.55,·
CC(=O)Nc1cccc(C(=O)OCc2ccccc2)c1,-0.8,-0.3
COc1ccc(-c2cc(=Nc3ccc(O)cc3)c3cc(C)ccc3o2)cc1,-0.05,-0.6
O=c1c(Cl)c(Cl)cnn1-c1ccccc1,-0.35,0.095
COc1cc(-c2nnc(SC(=O)OCc3ccccc3)o2)cc(OC)c1OC,-0.25,-0.06
CC(C)(C)NS(=O)(=O)c1ccc2nc(-c3ccccc3)[nH]c2c1,-0.75,-0.02

Next compounds.
SMILES,AID504770,Ba CapD inh
COc1ccccc1N1CCN(C(=O)CN(c2ccccc2OC)S(C)(=O)=O)CC1,-0.1,0.11
O=C(NC(Cc1c[nH]c2ccccc12)C(=O)OCc1ccccc1)OCCCCl (configuration not stated),·,-1.3
Cc1nn(C)c2oc(=O)cc(-c3ccccc3)c12,2,-0.38
CCN(CC(=O)NC1CCS(=O)(=O)C1)Cn1nc2c(Cl)cc(Cl)cn2c1=S (configuration not stated),-1.4,·
COc1cc(C2C(N3C(=O)c4ccccc4C3=O)C(=O)N2c2ccc(Br)cc2)cc(OC)c1OC (configuration not stated),·,-0.17
CC1=CC(=O)C(CCCC2=CC(=O)C=CC2=O)=CC1=O,0.45,0.3
CC(C)(C)Nc1nc2c(s1)CCCC2,-0.75,·
c1cc(CN2CCNCC2)ccn1,0.9,·

(cont.)
SMILES,AID504770,Ba CapD inh
CCOC(=O)c1nnn(-c2nonc2N)c1CN1CCOCC1,·,0.04
O=C(CC1OC(=O)c2ccccc21)N/N=C/c1cc2c(cc1Cl)OCO2 (configuration not stated),·,0.88
N#Cc1cc(-c2ncc(C(F)(F)F)cc2Cl)cnc1Oc1ccccc1,·,-0.38
N#C/C(=C(\O)Cc1ccccc1)c1nc2ccccc2[nH]1,0.65,0.63
COC(=O)C1=C(C)NC2=C(C(=O)CCC2)C1c1ccccc1 (configuration not stated),0.85,1.4
C/C(=N\NC(=O)Cc1ccccc1)C(c1ccccc1)N1CCOCC1 (configuration not stated),0.45,·
Cc1ccc(C(=O)c2coc3ccc(O)c(Cl)c23)cc1,1.7,-0.28
COc1cc(C(=O)NCCC(=O)NC2CCC(C)CC2)cc(OC)c1OC (configuration not stated),-0.25,-1

Continuation:
SMILES,AID504770,Ba CapD inh
Fc1ccccc1C1N(Cc2ccccc2)CCN1Cc1ccccc1,·,-0.3
O=C(O)c1cccc(NC(=O)c2cc3ccccc3o2)c1,-1,-0.42
Cc1ccc(C(=O)OCC(=O)N2CC3(C)CC2CC(C)(C)C3)cc1NC(=O)c1ccco1 (configuration not stated),-0.05,·
O=C(NNc1ccccc1)Nc1ccc2snnc2c1,-0.35,-0.72
CCCc1cc(-n2nnc3ccccc32)n2c(nc3ccccc32)c1C#N,1.2,1.9
CCC(CC)C(=O)NCc1ccc2[nH]c(C)cc2c1,-0.6,0.12
O=C1C(=Cc2ccccc2)C(=O)c2ccccc21,0.85,·
CCOC(=O)C1=C(CCl)OC(N)=C(C#N)C1c1ccccc1Br (configuration not stated),·,-0.57

Next records follow.
SMILES,AID504770,Ba CapD inh
Cc1cc(C)cc(NC(=O)C(C)Sc2ccccc2)c1 (configuration not stated),0.8,-0.56
O=C1C2C(c3ccc(Br)cc3)OC3(C(=O)c4ccccc4C3=O)C2C(=O)N1c1ccccc1C(F)(F)F (configuration not stated),·,-0.55
c1ccc(Cc2nnc3n2CCCCC3)cc1,0.65,-0.3
C(=N\C(/N=C/c1cccs1)c1cccs1)/c1cccs1,-0.25,·
CC(=NCc1cccs1)c1c(C(F)(F)F)[nH]n(-c2nc3ccccc3s2)c1=O,·,0.6
Cc1cccc(-n2c(CC#N)n[nH]c2=S)c1,1.2,0.4
CC(=O)Oc1ccc(OC(C)=O)c2cc3c(OC(C)=O)ccc(OC(C)=O)c3cc12,-2.4,0.49
CCCC(C)NC(=O)c1ccccc1 (configuration not stated),-0.3,·

Additional records follow:
SMILES,AID504770,Ba CapD inh
C/C(=C\C(=O)c1ccccc1)Nc1ccc2c(c1)OCO2,-0.4,-2.8
O=C(CSc1nc2ccccc2c(=O)[nH]1)NCc1ccco1,0.6,1.3
O=C(Nc1csc(-c2cccs2)n1)Nc1ccc(F)cc1F,0.85,86
CCN=C1SC(CC(=O)Nc2sc3c(c2C(=O)OCC)CCCC3)C(=O)N1CC (configuration not stated),-0.4,-0.41
CCOc1ccc(C2C(C(=O)OC)=C(N)OC3=C2C(=O)CC(c2ccccc2)C3)cc1 (configuration not stated),·,0.11
Cc1c(N2C(=O)C(C)SC23C(=O)Nc2ccccc23)c(=O)n(-c2ccccc2)n1C (configuration not stated),·,-0.38
N#C/C(=C(/O)CSc1n[nH]c(=O)[nH]c1=O)c1nc2ccccc2[nH]1,-0.8,·
O=C(Nc1ccc(Cl)cc1)C1CCCN1S(=O)(=O)c1ccc(F)cc1 (configuration not stated),·,0.24

Whole records as entered above. Screens in order: AID504770	Ba CapD inh
Profile of `COC(=O)C1=C(C)NC2=C(C(=O)CCC2)C1c1ccccc1` (configuration not stated) = 0.85	1.4
Profile of `COc1cc(-c2nc(-c3ccc(NC(=O)c4ccco4)cc3)no2)cc(OC)c1OC` = ·	0.47
Profile of `c1ccc(Cc2nnc3n2CCCCC3)cc1` = 0.65	-0.3
Profile of `Cc1nn(C)c2oc(=O)cc(-c3ccccc3)c12` = 2	-0.38
Profile of `CC(=NCc1cccs1)c1c(C(F)(F)F)[nH]n(-c2nc3ccccc3s2)c1=O` = ·	0.6

Other compounds.
SMILES,AID504770,Ba CapD inh
Cc1nc2c(cnn2C(C)C)c(C)c1CCC(=O)OC(C)C(=O)Nc1ccc(C(N)=O)cc1 (configuration not stated),0.2,·
CC1CCCCN1C(=O)c1cccc(C(=O)N2CCCCC2C)c1 (configuration not stated),-0.45,·
Cn1c(SCC(=O)NN)nc2ccccc21,0.15,·
Cc1ccc(S(=O)(=O)NC(=O)N2CCC(c3nc(-c4ccncc4)no3)CC2)cc1,·,-0.78
CSCCN1C(=O)NC2(CCC(C)CC2)C1=O (configuration not stated),-0.85,·
O=C(Nc1ccc(F)cc1)c1cc2cc(Cl)ccc2[nH]1,0.1,-0.38
CCCCc1ccc(C2C3=C(CC(C)(C)CC3=O)NC3=C2C(=O)c2ccccc23)cc1 (configuration not stated),·,-0.62
O=C(O)/C=C/c1cc2cccc3c2n(c1=O)CC3,·,10

Next part.
SMILES,AID504770,Ba CapD inh
Cc1ccccc1NC(=O)C(N)=S,1.6,·
CC(=O)N(/C=C1\Sc2ccccc2C1=O)N1CCCCC1,0.05,·
O=S(=O)(c1cc(Br)ccc1Br)N1CCN(c2nc(-c3ccccc3)ns2)CC1,·,-0.62
CCOc1cc(C(=O)N(CC(F)(F)F)C(C)C2CC2)ccc1OC (configuration not stated),1.1,·
CCCC(C)C(=O)Nc1ccc(NC(C)=O)cc1 (configuration not stated),-0.2,0.1
CC(=O)Nc1ccc(C(=S)N2CCN(c3ccccc3O)CC2)cc1,2,·
Cc1ccc(C)n1-c1ncc(Br)cn1,0.45,0.62
CCC(C)NC(=O)c1ccc2c(c1)CCN2S(=O)(=O)c1ccccc1 (configuration not stated),0.25,0.12

Continued:
SMILES,AID504770,Ba CapD inh
C=CCc1c(C)nc(SCc2c(C(=O)OCC)c3cc(O)c(Br)cc3n2C)c(C#N)c1C,·,-0.07
Cc1nc2ccccn2c1C(=O)CSc1cccc(C(F)(F)F)c1,·,-1.9
COc1nc(C)cc(C)c1C(=O)O,-0.15,-0.31
O=C(c1ccc(Cl)cc1)N1N=C(c2cccc([N+](=O)[O-])c2)CC1(O)C(F)(F)F (configuration not stated),·,-1
O=C(NCc1ccc(Cl)cc1)c1ccc(CSc2nc3ccncc3[nH]2)cc1,-0.65,3.8
CCC(=O)Nc1ccc(N2CCCCS2(=O)=O)cc1,-1.3,·
O=c1[nH]nc(SCc2nnc(-c3cccc(Cl)c3)o2)n1C1CCCCC1,0.35,1.3
CC(C)NCC1CCc2cc(CO)c([N+](=O)[O-])cc2N1 (configuration not stated),·,-0.51

Rewritten with each value named: part of the list above
O=C(NCc1ccc(Cl)cc1)c1ccc(CSc2nc3ccncc3[nH]2)cc1
  AID504770: -0.65
  Ba CapD inh: 3.8

CCC(=O)Nc1ccc(N2CCCCS2(=O)=O)cc1
  AID504770: -1.3
  Ba CapD inh: ·

O=c1[nH]nc(SCc2nnc(-c3cccc(Cl)c3)o2)n1C1CCCCC1
  AID504770: 0.35
  Ba CapD inh: 1.3

CC(C)NCC1CCc2cc(CO)c([N+](=O)[O-])cc2N1 (configuration not stated)
  AID504770: ·
  Ba CapD inh: -0.51

Next entries
SMILES,AID504770,Ba CapD inh
CC(C)c1ccc(NC(=O)COc2ccccn2)cc1,-0.4,-0.62
Cc1cc(C(=O)C(C)Sc2nnc(-c3ccc4c(c3)OCO4)o2)c(C)n1-c1ccc(OC(F)F)cc1 (configuration not stated),-0.5,·
COc1cc(C2C(N3C(=O)c4ccccc4C3=O)C(=O)N2c2ccc(C)c(C)c2)cc(OC)c1OC (configuration not stated),·,-0.02
Cc1ccc(C)c(NC(=S)N2CCC(c3nc4ccccc4o3)CC2)c1,1.6,·
N#Cc1c(NC(=O)/C=C/C(=O)O)sc2c1CCC2,-0.2,2
CC1=C(C(=O)Nc2ccc(Cl)cc2C(=O)N2CCCCCC2)SCCO1,2.2,0.045
CCCCc1c(C)c(C#N)c2nc3ccccc3n2c1NCCN1CCOCC1,0.2,0.085
O=C(Nc1ccccc1)OC1CN(C(c2ccccc2)c2ccccc2)C1,-0.5,-0.35

Going on with the list:
SMILES,AID504770,Ba CapD inh
O=C(CN1C(=O)c2ccccc2S1(=O)=O)NC12CC3CC(CC(C3)C1)C2,0.15,0.6
Cc1ccc(Nc2nc(N3CC(C)OC(C)C3)nc3c2cnn3C)cc1Cl (configuration not stated),0.35,-0.07
O=C(CO)Nc1ccccc1Sc1ccccc1,-0.15,·
CCOc1ccc(Nc2cc(C(=O)NCc3ccco3)c3ccccc3n2)cc1,1.6,-0.72
Nc1ccccc1SC/C=C/c1ccccc1,-0.65,0.31
CCOC(=O)C1CCCN(CCP(=O)(c2ccccc2)c2ccccc2)C1 (configuration not stated),-0.65,-0.19
